Arbovirus inh = antivirals against arbovirus infection; arbovirus infection cell-based antiviral screen; inhibition, % at 10 µM; 0.37% of 200,000 active;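 active means inhibition from about 30%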;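 further: bluetongue infection of BSR cells; cell survival read as ATP light after 72 h; 0% = infected wells without compound and 100% = uninfected wells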
YopH PTP inh = blocks Yersinia enterocolitica YopH tyrosine phosphatase | fluorescence Ex485/Em525 | inhibition, %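 (about 10 µM by stock and volumes)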 | 0.16% of 140,000 active;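 active means inhibition of 50% or more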;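 further: controls were vehicle for no effect and minimum signal wells for full effect; inactives centre near -20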
RecA splice inh = blocks M. tuberculosis RecA intein splicing; cell-free RecA intein splicing, fluorescence; inhibition, %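 (about 9 µM by stock and volumes)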; 0.75% of 290,000 active; AID 2221; in the data active means inhibition above about 30%; inconclusive means no clear call, values can overlap the other calls;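 further: 0% = vehicle wells and 100% = reference inhibitor control wells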
Target sequence (P9WHJ3 whole entry, looked up, canonical isoform): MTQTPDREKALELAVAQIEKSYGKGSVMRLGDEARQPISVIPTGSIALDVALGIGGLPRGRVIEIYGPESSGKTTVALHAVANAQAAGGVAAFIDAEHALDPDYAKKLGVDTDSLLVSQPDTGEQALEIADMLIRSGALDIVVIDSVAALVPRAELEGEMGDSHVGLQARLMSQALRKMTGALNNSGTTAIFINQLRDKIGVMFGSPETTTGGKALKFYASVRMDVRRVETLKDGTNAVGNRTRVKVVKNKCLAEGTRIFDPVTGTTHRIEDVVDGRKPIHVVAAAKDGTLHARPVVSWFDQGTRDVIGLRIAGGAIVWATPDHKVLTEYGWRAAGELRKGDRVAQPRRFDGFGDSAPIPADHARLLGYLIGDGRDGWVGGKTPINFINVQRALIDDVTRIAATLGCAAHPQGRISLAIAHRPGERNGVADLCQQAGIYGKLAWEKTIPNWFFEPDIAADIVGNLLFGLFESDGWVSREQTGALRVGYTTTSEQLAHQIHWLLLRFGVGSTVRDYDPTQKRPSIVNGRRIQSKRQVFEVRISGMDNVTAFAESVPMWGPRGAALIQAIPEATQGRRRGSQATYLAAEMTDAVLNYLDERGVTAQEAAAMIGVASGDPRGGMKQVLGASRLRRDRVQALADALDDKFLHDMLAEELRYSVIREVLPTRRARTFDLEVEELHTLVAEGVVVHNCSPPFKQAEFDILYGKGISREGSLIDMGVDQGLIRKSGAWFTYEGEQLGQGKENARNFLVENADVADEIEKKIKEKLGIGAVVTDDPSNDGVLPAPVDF
Mtb growth = M. tuberculosis H37Rv growth inhibitors, H37Rv strain (AID 1626); inhibition, % at 10 µM, or IC50 in µM where a hit was titrated; 0.95% of 220,000 active; M. tuberculosis H37Rv growth inhibition; higher % means a stronger effect;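 active means confirmed in a dose series; inconclusive means inhibition above 80% but not taken into the dose series; inactive means below 80% or under 30% at every dose of the series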;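 further: bacteria incubated seven days before Alamar blue readout; 0% = bacteria only wells and 100% = bacteria with antibiotic wells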
Mtb bLac sens = beta-lactam sensitization of Mtb H37Rv; M. tuberculosis H37Rv growth with meropenem, percent inhibition; hits of this screen are not shown here; inhibition, % at 25 µM; 0.27% of 330,000 active; AID 434955;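 active means about 74% or more and at least 40 points above the plate without the antibiotic, then above 30% in a dose series; inconclusive means first-round hits that could not be retested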;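 further: growth measured after seven days incubation then overnight dye step; 0% = bacteria only wells and 100% = bacteria with antibiotic; twin plates without the antibiotic show which effects depend on it; some results filed as inactive read as strong as hits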
Arbovirus inh repeat = further read-out of Arbovirus inh, marked with its call; inhibition, %; measured here: 10K subset replicate screen; many hits read low in the repeat;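 first of two repeat runs on a subset; 0% = infected and 100% = uninfected wells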
Active calls of the source: *; u = inconclusive; x = not tested or not shown. Not all compounds are listed; rates above refer to the full screens.

Start of the data: the first 7 entries, ahead of the listing:
SMILES	Arbovirus inh	YopH PTP inh	RecA splice inh	Mtb growth	Mtb bLac sens	others
Cc1ccc(C)c(N2CCN(C(=O)CCC(=O)N3CCOc4ccc(Cl)cc43)CC2)c1	x	x	8.7	x	3
C/C=C/Cn1c(SCc2ccc(Cl)cc2)nc2c1c(=O)[nH]c(=O)n2C	0	-38	14	9%	17
Cc1cc(OC(C)C(=O)NCCN2CCOCC2)c2c(C)c(C)c(=O)oc2c1 (stereo not drawn)	x	x	-1.4	x	4
Cc1cccc(N2C(=O)NC(=O)/C(=C/c3ccc(-c4ccc(C(=O)O)c(Cl)c4)o3)C2=O)c1	-3	x	-3.7	-8%	7
COc1cccc(C2/C(=C(\O)c3ccc4c(c3)OCO4)C(=O)C(=O)N2CCN(C)C)c1OC (stereo not drawn)	-2	-28	-3.7	-7%	-2
COc1ccc(-n2nc(C(=O)NCC(=O)NC(C)C)c3ccccc3c2=O)cc1	x	x	0.4	x	-1
NS(=O)(=O)c1ccc(CCNC(=S)Nc2ccc(F)cc2)cc1	2	x	5.1	-3%	-12

All compounds of this part, previewed entries included:
SMILES	Arbovirus inh	YopH PTP inh	RecA splice inh	Mtb growth	Mtb bLac sens	others
Cc1ccc(C)c(N2CCN(C(=O)CCC(=O)N3CCOc4ccc(Cl)cc43)CC2)c1	x	x	8.7	x	3
C/C=C/Cn1c(SCc2ccc(Cl)cc2)nc2c1c(=O)[nH]c(=O)n2C	0	-38	14	9%	17
Cc1cc(OC(C)C(=O)NCCN2CCOCC2)c2c(C)c(C)c(=O)oc2c1 (stereo not drawn)	x	x	-1.4	x	4
Cc1cccc(N2C(=O)NC(=O)/C(=C/c3ccc(-c4ccc(C(=O)O)c(Cl)c4)o3)C2=O)c1	-3	x	-3.7	-8%	7
COc1cccc(C2/C(=C(\O)c3ccc4c(c3)OCO4)C(=O)C(=O)N2CCN(C)C)c1OC (stereo not drawn)	-2	-28	-3.7	-7%	-2
COc1ccc(-n2nc(C(=O)NCC(=O)NC(C)C)c3ccccc3c2=O)cc1	x	x	0.4	x	-1
NS(=O)(=O)c1ccc(CCNC(=S)Nc2ccc(F)cc2)cc1	2	x	5.1	-3%	-12
COC(=O)c1cc(C(=O)OC)cc(-n2c(C)cc(C=O)c2C)c1	1	x	1.0	0%	-1
O=C(NC1CC1)c1cccc(Oc2ccccc2)c1	x	x	-1.2	x	8
Cc1c(NC(=O)c2ccc(N(C)S(=O)(=O)c3ccccc3)cc2)c(=O)n(-c2ccccc2)n1C	-2	x	0.0	-1%	-9
CC(=O)Nc1nc2ccccc2n1Cc1ccccc1	-23	-4	1.2	2.7µM*	99
CC1(C)Cc2nc3sc(C(=O)NCCO)c(N)c3cc2CO1	1	-2	-2.8	-3%	0
Cc1c(CNCCc2ccccc2)c(C(=O)O)c(C)n1-c1ccccc1	x	x	12	x	-4
CSc1ccccc1OCc1cc(C(=O)NC2CCOC(C)(C)C2)no1 (stereo not drawn)	x	x	2.0	x	u
CCOC(=O)C1CCN(c2cc3c(cc2NC(=O)c2ccccc2Cl)n(C)c(=O)n3C)CC1	x	x	-6.4	x	97
C1=CC2CC1CC2CN1CCN(c2ccccc2)CC1 (stereo not drawn)	-17	-19	0.5	9%	x
CCOc1ccc(-c2nc(CSCC(=O)NCC3CCCO3)c(C)o2)cc1 (stereo not drawn)	x	x	0.3	x	-7
COc1ccc(NC(=O)C2CCCO2)cc1OC (stereo not drawn)	5	7	2.5	-10%	-4
O=C(COc1ccccc1[N+](=O)[O-])NCCC1=CCCCC1	12	x	1.4	7%	1
COc1ccc(NS(=O)(=O)c2ccc(-c3coc(C)n3)cc2)cc1OC	x	x	-2.2	x	-9
CCCCN(C(=O)c1ccccc1OCc1ccc(F)cc1)c1c(N)n(CCC)c(=O)[nH]c1=O	x	x	-1.4	x	-7
COc1ccc(NC(=O)CN(C)C(=O)c2cn(-c3ccccc3)nc2-c2cccnc2)cc1	x	x	-7.4	x	-16
CCOc1ccc(C(=O)NCC(=O)OCC(=O)N2CCCCC2)cc1	1	-28	x	-2%	-2
O=C(c1cccc(C(=O)N2CCN(c3ccccc3)CC2)c1)N1CCN(c2ccccc2)CC1	18	-15	2.9	5%	u
CNC(=S)Nc1cccc(S(=O)(=O)NC2=NCCC2)c1	4	x	-2.3	-5%	-8
O=C(Nc1ccc(Cn2cccn2)cc1)c1ccc(COc2ccc(Br)cc2)cc1	-4	-10	x	-15%	-4
CN1C(=O)/C(=C/C=C2\SCCN2C)OC1=S	-7	x	-0.6	0%	3
CCOC(=O)c1cc(-c2ccco2)nc2c1c(C)nn2CCC#N	5	-62	-8.5	8%	-11
Cc1cc(C)c2nc(-c3ccccn3)cc(C(=O)NCc3ccc(S(N)(=O)=O)cc3)c2c1	-16	x	x	-8%	-6
O=C(Nc1cccnc1)c1sc2cccc(F)c2c1Cl	4	x	-1.6	8%	12
C=C(C)c1cccc(C(C)(C)NC(=O)Nc2ccc(C)cn2)c1	-7	-15	0.5	-4%	5
CC(Cc1cccnc1)NC(=O)CCc1nnc(-c2ccccc2)o1 (stereo not drawn)	4	x	-0.3	-4%	5
CCOC(=O)C1(CCOc2ccccc2)CCN(Cc2nccn2CC)CC1	2	x	1.0	6%	-2
COCC(=O)Nc1ccc([N+](=O)[O-])cc1C	2	-16	-8.2	-3%	-1
Cc1cc2ncn(/N=C/c3cccnc3)c2cc1C	4	-58	2.0	7%	86
c1ccc(-c2nc(N3CCOCC3)s[n+]2-c2ccccc2)cc1	2	-24	-1.3	-10%	-6
CCOC(=O)C1(Cc2ccccc2)C(=O)Nc2ccccc21 (stereo not drawn)	x	x	-1.2	x	-13
Cc1ccc(NCN2C(=O)C3CC=CCC3C2=O)cc1 (stereo not drawn)	2	-12	-0.1	2%	2
O=c1[nH]c2ccccc2n2c(=S)[nH]nc12	x	x	-2.9	-2%	-4
O=C(COC(=O)C1CCN(S(=O)(=O)c2cccc3cccnc23)CC1)c1ccccc1	6	1	0.5	-6%	-1
CC(C)OC(=O)CCCNc1ccc([N+](=O)[O-])cc1[N+](=O)[O-]	6	-40	4.4	-5%	4
CCOc1ccc(N2CC(C(=O)Nc3ccc(S(=O)(=O)N4CCOCC4)cc3)CC2=O)cc1 (stereo not drawn)	-1	-44	-3.1	0%	3
COc1ccc(CN2CCNC(=O)C2CC(=O)NCCC2=CCCCC2)c(F)c1 (stereo not drawn)	x	x	2.7	x	-2
Oc1ccc(/C=N/NC(=S)Nc2cccnc2)c(O)c1O	x	x	-3.3	8%	x
COc1ccccc1NC(=O)CCSc1nc(C)cs1	x	x	-0.7	x	-3
Nc1cc2c(cc1C(=O)c1cccc(Br)c1)OCCO2	-14	x	6.3	5%	6
Cc1nc(-c2ccccn2)sc1C(=O)Nc1ccc(F)cc1	-7	0	0.9	3%	-6
COc1cccc(C2CNC3(CCCC(C)C3)c3[nH]c4ccccc4c32)c1OC (stereo not drawn)	x	x	2.5	x	20
Cc1ccc(C(=O)N2CCC(n3nccc3NC(=O)c3ccccc3C)CC2)cn1	x	x	-0.6	x	-9
CCCNC(=S)Nc1cc2oc3ccccc3c2cc1OC	x	x	8.1	x	5
CCn1c(N2CCC(C)CC2)nc2c1c(=O)n(C)c(=O)n2C	-3	-46	0.1	2%	-2	Arbovirus inh repeat=3
CCOC(=O)c1c(C)[nH]c(C(=O)CSc2nnnn2-c2ccc(C)cc2)c1C	-13	-14	0.0	-7%	5
COC(=O)c1ccc(COc2ccc(CNCc3ccc(Cl)cc3)cc2)cc1	x	x	0.0	x	0
C=CCN(c1ccccc1C(=O)NCC(=O)OCC)S(=O)(=O)c1ccc(C)cc1	x	x	-1.0	-6%	-1
CCCC(C)C(=O)Nc1cccc(NC(C)=O)c1 (stereo not drawn)	2	-6	0.2	7%	u
Cc1ccc(NC(=O)N2CCCC2C(=O)NCc2ccccc2Cl)cc1 (stereo not drawn)	x	x	-2.0	x	-8
CC(C)c1ccccc1NC(=O)COc1ccc(C(=O)NCCc2ccccc2)cc1	5	-8	-0.6	48%	12
NS(=O)(=O)c1ccc(-c2ccc(/C=C3\SC(=O)NC3=O)o2)cc1	x	x	-10.0	x	91
CC(C)NC(=S)N/N=C/c1cc(Br)ccc1O	-1	-28	-2.0	u	98
O=C(Nc1nc(-c2ccco2)c(-c2ccco2)s1)C1CC(=O)N(c2ccc3c(c2)OCCO3)C1 (stereo not drawn)	-3	-23	14	8%	-4	Arbovirus inh repeat=2
Next compounds
SMILES	Arbovirus inh	YopH PTP inh	RecA splice inh	Mtb growth	Mtb bLac sens	others
COc1cccc(-n2c(COc3ccccc3C)nnc2SCC(=O)O)c1	0	-37	-1.1	-13%	0
O=C(CCc1ccccc1)NNC(=O)C12CC3CC(CC(C3)C1)C2	-1	-3	-1.0	6%	0
C=CCNc1nc(N)c([N+](=O)[O-])c(Nc2ccccc2OC)n1	x	x	2.3	x	2
CCNC(=O)C(C)Oc1ccc(Cl)cc1Cl (stereo not drawn)	4	x	7.9	2%	4
COc1ccccc1NC(=O)c1cc(-c2cc(OC)c(OC)c(OC)c2)nc2ccccc12	x	x	-1.4	x	3
Cc1cc(=O)n2c(nc3ccccc32)[nH]1	4	-12	-0.2	-4%	-1
C/C=C/c1ccc(OCCCCOc2c(OC)cccc2OC)c(OC)c1	12	-35	2.0	-2%	-2
O=c1nc(NCc2ccccc2Cl)cn[nH]1	0	-15	2.5	-11%	-5
NC(=S)/N=C/c1c(O)[nH]c(=O)[nH]c1=O	3	x	-5.4	-6%	-3
CCN1CCN(C(c2ccccc2)c2nnnn2Cc2ccccc2)CC1 (stereo not drawn)	-3	8	-1.1	-1%	5
CCC1(c2ccccc2)NC(=O)N(CC#N)C1=O (stereo not drawn)	2	x	-0.8	6%	1
O=C(Nc1ccccc1OC(F)F)c1ccc(S(=O)(=O)N2CCOCC2)cc1	x	x	0.4	x	-6
Cc1cc(C)c(C)c(S(=O)(=O)NCC(=O)Nc2sc3c(c2C(N)=O)CCCC3)c1C	1	-9	-1.4	1%	-2
CCc1ccc(Nc2cc(=O)n(C3CCCCC3)c(=O)[nH]2)cc1	2	-17	0.3	-2%	-16
CCCNC(=S)N1CCC(NC(=O)c2ccc(C)cc2)CC1	x	x	-2.0	x	2
COc1ccc(C(=O)NCc2nnc(SCC(=O)NC3=NCCS3)n2C)cc1	x	x	-2.3	x	-1
Cc1cccc(C2N(c3ccc(F)cc3)C(=O)C3CCCN32)c1 (stereo not drawn)	9	-16	-0.1	0%	-4	Arbovirus inh repeat=4
CN(CC(=O)NC1CCCCCC1)S(=O)(=O)c1ccc(Br)cc1	x	x	0.1	x	u
CCOC(=O)c1cccc(N2C(=O)C3C(C(=O)NC4CC4)C4(C)C=CC3(O4)C2C(=O)NC(C)(C)C)c1 (stereo not drawn)	6	-10	-1.6	-4%	-1
COc1ccc(C(=O)Nc2nc(-c3cccs3)c(NC(C)=O)s2)cc1	6	-8	0.1	17%	1
Brc1ccc2c(c1)C(C1=NCCN1)c1ccccc1CS2 (stereo not drawn)	-2	-28	-5.6	-1%	-6
Cc1c(Cc2ccccc2)c(=O)oc2cc(OCC(=O)NC(Cc3ccc(Cl)cc3)C(=O)O)ccc12 (stereo not drawn)	x	x	5.9	x	1
COc1ccc(OC)c2sc(NC(=O)c3cccc(N4C(=O)CCC4=O)c3)nc12	x	x	2.5	x	-9
O=c1[nH]c(C2CCN(S(=O)(=O)c3ccccc3)CC2)nc2c1nnn2Cc1ccccc1	11	x	3.4	1%	32
Cn1c(=O)[nH]c(=O)c2c1nc(N1CCNCC1)n2Cc1ccccc1	x	x	-2.6	x	2
CCn1ccc(C(=O)Oc2ccc(Cl)cc2)n1	0	-105	29	-3%	94
CCN(C(=O)CSc1nc(N)cc(=O)[nH]1)c1c(N)n(Cc2ccccc2)c(=O)[nH]c1=O	x	x	2.0	x	-7
Cc1occc1-c1n[nH]c(=S)n1-c1ccccc1	4	-31	0.6	-5%	-6
CCOc1ccc(NC(=O)CN2CCN(CC(=O)Nc3ccc(OC)cc3OC)CC2)cc1	x	x	1.8	x	7
CCN(CC(O)COc1ccc(OCC(O)CN(CC)C2CCCCC2)cc1)C1CCCCC1 (stereo not drawn)	-20	19	-6.9	-13%	-6
O=C(NC(c1ccccc1)c1cc(Cl)c2cccnc2c1O)c1cccnc1 (stereo not drawn)	-30	-17	5.8	9%	2
O=C(COC(=O)c1ccccc1NS(=O)(=O)c1ccc(Cl)cc1)NCc1ccccc1	8	-10	5.1	4%	0
COc1ccc(C(=O)N(Cc2ccco2)Cc2cccs2)c(O)c1	-3	-27	0.8	-8%	-2
O=C(O)c1ccc(CNS(=O)(=O)c2ccc3ccccc3c2)cc1	x	x	0.2	x	5

Screening results from PubChem BioAssay.
